TRPML1 blocker – inhibitors of human TRPML1 channel. activity change, negative = inhibition, % (no concentration beside the values). 390,000 compounds, 0.02% hits. AID 624415. Q9GZU1. TRPML1-inducible cells, Ca2+ dye fluorescence, FDSS; hits give low values; inhibition of EC80 agonist-evoked calcium signal; in the data active means activity change below about -50%; inconclusive means about -30% to -50%; inactive means above about -30%;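 further: stimulus is agonist 54-4 at its EC80 concentration; on the % scale 0 is the no-effect control and ±100 the full control effect; compound concentration not given in the record; the text of the record puts the active cut at -80%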
Target sequence (Q9GZU1 whole entry, looked up): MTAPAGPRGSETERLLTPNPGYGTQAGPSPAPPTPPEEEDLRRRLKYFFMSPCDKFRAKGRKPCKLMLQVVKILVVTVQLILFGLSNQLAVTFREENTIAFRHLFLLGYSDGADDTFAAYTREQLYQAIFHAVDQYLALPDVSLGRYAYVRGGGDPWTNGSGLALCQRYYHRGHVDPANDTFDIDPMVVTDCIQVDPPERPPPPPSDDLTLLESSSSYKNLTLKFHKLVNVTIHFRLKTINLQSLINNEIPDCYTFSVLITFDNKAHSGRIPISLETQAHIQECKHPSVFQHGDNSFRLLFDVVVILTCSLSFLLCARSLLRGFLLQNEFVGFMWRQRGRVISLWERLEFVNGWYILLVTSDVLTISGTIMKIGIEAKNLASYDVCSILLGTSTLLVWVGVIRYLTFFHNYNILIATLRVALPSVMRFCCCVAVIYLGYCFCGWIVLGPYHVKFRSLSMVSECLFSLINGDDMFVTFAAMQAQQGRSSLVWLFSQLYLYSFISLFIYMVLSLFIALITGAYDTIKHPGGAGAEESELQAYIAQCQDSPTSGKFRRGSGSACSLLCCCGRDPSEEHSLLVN
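Calcium fluorescence in TRPML1-DL cells induced overnight with Tet: a 110 s read after compound pin addition, then a 110 s antagonist read after challenge with 54-4 at 4 uM final (EC80).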
TRPV1 PAM – enhances activation of the human vanilloid receptor TRPV1; Q8NER1; TRPV1-expressing cells, Fluo-8 calcium influx, capsaicin EC20 potentiation; host cell line not named in the record; control for the full effect not named in the record; potentiation, % at 8.33 µM; 320,000 compounds, 0.02% hits; AID 540277; active means potentiation above 80%; inconclusive means 30% to 80%; inactive means below 30%; further: 0% is about no effect
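TRPV1-expressing cells were cultured overnight at 35.5C and loaded with Fluo-8 calcium dye for 40 to 90 min at room temperature. After a 10 s baseline, compound was added and calcium influx was read kinetically for 3 min (ex 480/em 520 nm).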
ClpP mod – qHTS Assay for Activators of ClpP; ATP-dependent Clp protease proteolytic subunit (Bacillus subtilis (strain 168)), P80244; purified B. subtilis ClpP, FRET peptide cleavage, 20 min; Potency, µM (highest dose often 57.5 µM), for the others: at the top dose activity change, negative = active; 340,000 compounds, 1.9% hits; active = well fitted falling curve with a large enough effect; inconclusive = small, poorly fitted or top-dose-only effect; inactive = no such curve, though single readings can be large or run the other way; further: potency means the concentration at half of the fitted maximal effect; the source files actives as falling curves though it sought activators and does not explain the sign; nearly all actives have a fitted effect of over 65% in size; many hits overshoot -100%
Target sequence (P80244 whole entry, looked up): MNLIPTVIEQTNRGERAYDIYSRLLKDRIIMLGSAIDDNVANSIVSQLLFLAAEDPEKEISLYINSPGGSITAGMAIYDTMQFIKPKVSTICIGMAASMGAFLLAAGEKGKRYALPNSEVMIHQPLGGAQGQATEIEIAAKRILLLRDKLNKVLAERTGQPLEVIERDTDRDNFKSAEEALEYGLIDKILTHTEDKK
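Buffer: 100 mM Tris/HCl pH8, 100 mM KCl, 0.05% low protease BSA, 2.5% glycerol, 0.01% Tween-20. ClpP 10 microg/mL final; 20 min RT; delta FRET normalized to ADEP and DMSO controls.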
TRPML1 agonist – activates the human TRPML1 channel; Q9GZU1; TRPML1-expressing cells, Ca2+ dye fluorescence, FDSS; host cell line not named in the record; reference of the full effect not given here; activation, % (no concentration beside the values); 410,000 compounds, 0.12% hits; AID 624414; in the data active = activation above about 50%; inconclusive = about 30% to 50%; inactive = below about 30%; further: 0% is about no effect; the text of the record puts the active cut at 80%
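Cells: TRPML1-DL, 1X Tet inducer, ~16 h at 37 degrees C/5% CO2. Dye: ABD Ca8 no-wash + quencher, 45-90 min RT. Read: 10 s baseline, compound add, 110 s agonist phase; 54-4 EC80 (4uM final), 110 s antagonist phase.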
PINK1 expr mod – changes PINK1 expression; PINK1 immunofluorescence, high-content cytometry, 24 h; 410,000 compounds, 0.2% hits; Potency, µM (top dose mostly 76.6 µM), without a hit: at the top dose activation (PINK1 increase), hits mostly activators; active = well fitted activation curve with a large enough effect; inconclusive = small, poorly fitted or top-dose-only effect; inactive = flat fitted curve, though single readings scatter; cell line not stated here;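 further: potency means the concentration at half of the fitted maximal effect; % of control where 0% means no effect; nearly all actives have a fitted effect of over 65% in size; a mitochondrial uncoupler was the plate control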
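PINK1 protein, normally rapidly degraded, was detected by immunofluorescence after 24 hour compound treatment of a stable cell line. Titration data (5 concentrations) came from laser-scanning cytometry, with CCCP-treated wells as controls.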
Menin MLL FP FL – menin-MLL binding inhibition, fluorescein peptide; Fluorescence polarization, fluorescein-MLL peptide displacement from menin; FP activity change, % at 61.4 µM; 290,000 tested, under 10 active; AID 1766; inconclusive = falling polarisation curve, or a change in total fluorescence; inactive = total fluorescence flat and polarisation flat or rising; no compound was filed as active; the % refers to the polarisation; negative = inhibition;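 further: % of control where 0% means no effect; inhibitors lower the polarisation; unlabelled MLL peptide was the positive control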
Sfp inh – inhibitors of Bacillus subtilis Sfp phosphopantetheinyl transferase | Q9F4F7 | Biochemical Sfp PPTase activity, qHTS | Potency, µM, for the others: max response, negative = inhibition, usual class: inhibitors | 310,000 compounds, 3.5% hits; active means well fitted inhibition curve with a large enough effect; inconclusive means small, poorly fitted or top-dose-only effect, or another doubt; inactive means no such curve, though single readings can be large or run the other way;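 further: the enzyme is Sfp with the accession as filed and its product quenches rhodamine fluorescence; potency means the concentration at half of the fitted maximal effect; 0% = enzyme reaction without inhibitor and -100% = no enzyme wells; top concentration of the series not given in the record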
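Reaction rates are the 30-min fluorescence difference (ex 525, em 598 nm) in wells containing 15 nM Sfp, 5 uM rhodamine-CoA and 12.5 uM BHQ-2-YbbR at pH 7.6 with 10 mM MgCl2.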
Active calls of the source: *; ? = inconclusive; . = no result given; & = joins results of further samples; [ ] = another dose, or the depositor's remark.

Each structure is followed by: TRPML1 blocker	TRPV1 PAM	ClpP mod	TRPML1 agonist	PINK1 expr mod	Menin MLL FP FL	Sfp inh
COc1ccc(C(=O)N2CCN(c3nc4ccccc4o3)CC2)cc1OC
    -6	.	-0.3%	0.0	-0.5%	2.1	14%
COc1ccccc1CNc1ncnc2cc(OC)c(OC)cc12
    -9	-6	-17%	0.5	1.4%	-0.8	7%
COc1ccccc1-c1cc(C(=O)NC(C)C)no1
    29	.	-23%	-0.2	?	0.1	4%
O=C(Nc1ccccc1N1CCOCC1)c1ccccc1[N+](=O)[O-]
    5	12	1.6%	-0.2	-2.9%	-1.2	17%
CN1CCN(c2ccc(CNC(=O)C3Cc4c(-c5ccccc5)ccnc4O3)cc2)CC1 (configuration not stated)
    -1	.	-14%	-0.4	-1.4%	.	.
CCC(=O)Nc1ccccc1C(=O)OCC(=O)c1ccc2ccccc2c1
    0	0	?	2.0	-6.3%[38.3 µM]	3.5	?
COc1ccc(-c2cn[nH]c2-c2ccc(OCc3ccc([N+](=O)[O-])cc3)cc2O)cc1
    7	-7	-5.0%	1.0	5.4%	-0.4	39%[activator]
CC12CN3CCN(CC(C3)/C1=N\NC(=O)c1ccccc1N)C2
    -22	.	.	0.7	0.9%	1.5	3%
FC(F)(F)c1cccc(NC(=S)NNC(=S)NCc2ccccc2)c1
    110	-3	-0.1%	-0.3	2.2%[38.3 µM]	5.1	45µM*
CCC(C(=O)OCC(=O)N1CCN(c2ccc(OC)cc2)CC1)c1ccccc1 (configuration not stated)
    -2	-3	-0.2%	-2.0	0.6%	.	.
CCOc1ccc(NC(=O)c2c(NCc3ccc(C)o3)sc3c2CCC(C)C3)cc1 (configuration not stated)
    1	.	-0.9%	0.1	1.0%	.	.
CN1C(=O)/C(=C\C=C2/CCCN2C)N(C)C1=S
    1	0	.	0.5	0.3%	?	-11%
CCOc1ccc(NC(=O)c2cc3n(n2)C(C(F)(F)F)CC(c2ccco2)N3)cc1 (configuration not stated)
    -5	-4	-14%	1.0	1.3%	4.1	10%
Nc1nc(Cl)nc2ccc(Br)cc12
    -1	-3	-0.8%	0.2	1.0%	28	9%
CCOc1ccccc1NC(=S)NC1CC2CCC1C2 (configuration not stated)
    8	-11	4.7%	2.3	-1.1%	-2.5	7%
COc1ccc(CN(Cc2ccco2)C(=O)COc2ccc(Cl)cc2C)cc1
    17	.	-0.5%	2.8	11%	.	.
O=C(Nc1ccc(N2CCOCC2)c(Cl)c1)c1cccnc1Cl
    -13	16	-0.1%	1.4	-1.0%	6.2	-1%
Cc1cc(C)cc(NC(=O)C(Sc2ncnc3ccccc23)c2ccccc2)c1 (configuration not stated)
    3	9	-5.2%	-1.5	2.6%	4.7	3%
COc1cc(/C=N/NC2=NCCCCC2)ccc1O
    -13	5	.	0.3	-0.2%	0.9	12%
Cc1ccc(Nc2c(-c3ccc(C)o3)nc3cccc(C)n23)cc1
    -2	.	4.0%&3.7%	-1.1&2.4	-0.1%&6.3%	.	.
C[C@@H]1CN([C@@H](C)CO)S(=O)(=O)c2ccc(Br)cc2O[C@H]1CN(C)C(=O)c1ccccc1F
    -26	.	-1.7%	-0.2	-1.4%	.	.
Cc1noc(/C=C/N(C)C)c1S(=O)(=O)N(C)CC(=O)N1CCc2ccccc21
    10	3	-0.9%	0.0	4.1%	2.2	8%
CCc1ccc(NC(=O)C(C)OC(=O)CCN2C(=O)C3CC=CCC3C2=O)cc1 (configuration not stated)
    14	.	.	0.0	3.4%	.	.
COc1cccc2c(=O)cn[nH]c12
    47	-1	?	1.0	-1.5%	0.4	3%
O=C(Cc1n[nH]c(=O)c2ccccc12)OCC(=O)c1ccccc1Cl
    -9	1	-0.1%	0.4	0.9%	.	.
COc1ccc(N2CCN(C(=O)c3ccc4c(=O)n(CCc5ccc(OC)c(OC)c5)c(=O)[nH]c4c3)CC2)cc1
    8&-16	-2	-4.9%&-2.0%	-1.0&0.3	1.4%&1.8%	-1.4	-11%
O=C(Nc1ccccc1C(=O)NCc1cccnc1)c1ccccc1Cl
    -9	4	1.2%	-0.4	1.3%	.	16%
CSCC(=O)N1CCc2ccc(NC(=O)c3ccccc3Cl)cc2C1
    -10	-11	.	-0.8	3.6%	-6.1	12%
CC(C)n1c(O)c(N=NC(=O)CNC(=O)c2cccnc2)c2ccccc21
    19	21	-0.7%	-0.6	3.0%	.	11%
COc1cccc(C2=CC(=O)C[C@H](c3ccc(Cl)cc3)C2)c1OC
    -3	-17	-8.0%	0.8	-0.4%	.	.
O=C(CC1CCCC1)N1CCCC(Nc2ccc(F)cc2)C1 (configuration not stated)
    -21	-5	-11%	0.3	2.1%	.	-1%
CC(=O)Nc1ccc(C(=O)Nc2ccc(S(=O)(=O)Nc3nccc(C)n3)cc2)cc1
    -11	-11	-0.5%	0.1	0.3%	-1.7	5%
Brc1cccc(CNn2cnnc2)c1
    -1	.	.	2.2	3.3%	.	.
Cc1nnc(NC(=O)CSc2nnc(CCNC(=O)c3ccccc3F)n2C)s1
    -15	-15	.	0.4	1.6%	-0.3	11%
COc1ccc(-n2nc3c(c2NC(=O)c2ccc(N4C(=O)CCC4=O)cc2)CSC3)cc1
    -3	-10	.	0.7	3.5%	0.8	5%
CCCc1nnc(NC(=O)c2nc(SCC)ncc2Cl)s1
    3	.	-2.4%	-0.1	4.3%	.	.
O=C(Nc1ccc(F)c(Cl)c1)c1csc(COCCO)n1
    26	.	2.0%	0.6	0.0%	.	.
Cc1ccc(-c2nc3ccccn3c2Nc2ccc3c(c2)OCO3)cc1
    8	.	4.6%	0.9	1.5%	.	.
COCCCNC(=O)c1ccc(NC(=O)c2nsc3ccccc23)cc1
    -8	.	-1.0%	-1.0	-0.3%	.	.
Cc1ccc(S(=O)(=O)NCCc2nnc3ccc(SCc4cccc(F)c4)nn23)cc1
    18	.	0.9%	0.0	0.3%	.	.
CC(C)NC(=O)COC(=O)Cn1[nH]c(=O)c2ccccc2c1=O
    -25	18	-9.4%	0.1	4.2%	2.0	-1%
Cc1ccccc1C(=O)NCCc1csc(-c2ccc(C(F)(F)F)cc2)n1
    -18	.	?	4.4	2.3%	.	.
COc1ccc(C)cc1NC(=O)CNc1ccccc1CN(C)C1CCCCC1
    25	-5	.	0.6	?	0.1	9%
CC(C)Nc1nnc(SCC(=O)NCc2ccc3c(c2)OCO3)s1
    ?	7	.	-0.6	-1.6%	2.4	-10%
CN(C(=O)c1ccc(Br)cc1)C1CCS(=O)(=O)C1 (configuration not stated)
    22	-1	.	0.9	-3.1%	.	.
Cc1cc(OC(=O)c2cc(Cl)ccc2Cl)c([N+](=O)[O-])c(=O)[nH]1
    7	-4	0.8%	-0.3	-0.3%	-1.0	11%
CN1CCC(=NNC(=O)CN(c2cccc([N+](=O)[O-])c2)S(=O)(=O)c2ccccc2)CC1
    2	11	.	0.0	1.4%	-1.3	10%
CN(CC(=O)Nc1ccc(Cl)c(C(F)(F)F)c1)C(=O)c1cccnc1Sc1ccccc1
    -1	2	-1.9%	2.4	18%	.	10%
COc1cc(/C=C(\C#N)C(=O)Nc2cccc3ncccc23)ccc1O
    .	0	.	.	.	?	14%
N/C(=N\c1nc2c(c(=O)[nH]1)CCCC2)Nc1ccc(Oc2ccccc2)cc1
    25	-11	-30%	1.9	9.5%[38.3 µM]	-0.4	15%
CCN1CCN(c2c(Cl)cccc2NC(=O)c2ccc3nsnc3c2)CC1
    29	4	.	0.9	-1.7%	0.8	-8%
O=[N+]([O-])c1cc(C(F)(F)F)ccc1N1CCCNCC1
    28	1	3.9%	0.7	1.1%	1.7	-12%
S=c1[nH]c(-c2ccccc2)cs1
    8	1	.	-0.8	0.5%	-1.4	79µM*
CC(C)CCN1CCN(Cc2ccc(C(F)(F)F)cc2)CC1CCO (configuration not stated)
    -6	-11	1.1%	-0.4	0.3%	-13	4%
Cn1c(SCC(=O)O)nnc1-c1ccc2ncccc2c1
    .	?	.	.	.	3.1	11%
Clc1ccc(-c2cc3ccccc3nc2N2CCOCC2)cc1
    -5	-5	.	0.5	13%	-0.5	-7%
CN(CC(=O)Nc1ccc(F)cc1)C(=O)COC(=O)c1ccccc1
    27	-21	2.3%	0.1	-0.4%	.	.
O=S(=O)(NCC(c1cccnc1)N1CCN(Cc2ccccc2)CC1)c1ccc(F)cc1 (configuration not stated)
    3	2	-3.3%	1.1	-2.8%	.	8%
CC(C)(C)OC(=O)N1CCCC1C(=O)NCCc1ccccc1 (configuration not stated)
    2	-1	2.1%	-0.4	-1.2%	-4.9	2%
CC(C)c1ccc(/C=C/C(=O)NC2CCCCC2)cc1
    -6	-6	?	-0.7	3.2%	5.2	2%

(more compounds)
Each structure is followed by: TRPML1 blocker	TRPV1 PAM	ClpP mod	TRPML1 agonist	PINK1 expr mod	Menin MLL FP FL	Sfp inh
S=c1[nH]cnc2scc(-c3ccc(Cl)cc3)c12
    18	-23	.	2.0	0.3%	2.2	-20%
O=C(C1=NNCC1c1ccc(Cl)cc1)C1CO1 (configuration not stated)
    -7	5	-1.5%	0.1	-1.3%	5.0	5%
CCOC(=O)c1cn(CC)c2c(ccc3ccccc32)c1=O
    8	-2	1.3%	-0.1	8.5%	0.7	-13%
OC[C@@H]1CN(Cc2ccco2)C[C@H](n2cnc3c(Nc4ccccc4)ncnc32)O1
    .	.	-28%	-0.3	2.1%	.	.
CCOc1ccc(CNC(=O)Cn2ncc3c(=O)oc4ccc(C)cc4c32)cc1
    -5	.	-1.6%	0.0	-1.6%	.	.
COc1ccc(-n2c(=O)cnc3cnc(Oc4cccc(Cl)c4)nc32)cc1
    .	.	.	.	5.5%	1.7	11%
CC(NC(=O)CNC(=O)c1ccco1)c1ccccc1 (configuration not stated)
    -7	-4	.	-0.7	0.2%	-0.7	10%
COc1ccc(NC(=O)C[C@H]2C(=O)N(c3ccc(OC)cc3)C[C@@H]2C)cc1
    -9	.	-2.3%	0.8	0.4%	.	.
CCCC#Cc1ccc2c(c1)O[C@@H](CN(C)Cc1ccc3c(c1)OCO3)[C@H](C)CN([C@@H](C)CO)S2(=O)=O
    -5	.	-15%	1.4	?	.	.

Compound activity deposited in PubChem by National Center for Advancing Translational Sciences (NCATS).
